Screening data (PubChem)
Sa helicase inh: inhibitors of S. aureus replicative helicase, primary screen, biochemical, fluorescence unwinding readout; purified S. aureus helicase, fluorescence unwinding assay; about half of the hits fall short of the stated cut; inhibition, %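 (tested at about 80 µM)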; 120,000 tested, 0.05% active; AID 485395, 2010;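 active = both duplicates at 50% or more, or one of them with a favoured structure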;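 note: 0% = mean of negative control wells and 100% = mean of positive control wells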
MgrA-DNA mod: S. aureus MgrA activity modulators, primary screen, biochemical, S. aureus Newman, fluorescence polarization; MgrA-DNA binding; inhibition, %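 (about 10 µg/mL by stock and volumes)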; 84,000 tested, 0.13% active;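 active = above 50% in either of two replicates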;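 note: 0% = protein plus DNA without compound and 100% = DNA alone without protein; higher means less MgrA bound to DNA so lower polarization; one replicate is shown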
Starred values were filed as active, the others as inactive; / = not tested or not shown; & = joins results of further samples. These rows are one share of the data; rates above refer to the full screens.

mol | Sa helicase inh | MgrA-DNA mod
CCOC(=O)c1oc2ccc(Cl)cc2c1NC(=O)CCCN1C(=O)c2ccccc2C1=O | -2.0 | 1.4
O=c1[nH]c(NN=C2CCCCC2)nc2sc3c(c12)CCCC3 | 19.0 | /
N#Cc1ccsc1NC(=O)CCOc1ccccc1 | -15.0 | /
CCCNS(=O)(=O)c1cc2c(cc1C)N(C)CCO2 | -1.0 | -1.1
O=C(CSc1nnc(-c2ccccc2)n1-c1ccccc1)NC(=O)CN1CCCC1=O | 3.0 | /
COC(=O)C1=C(C)N(c2ccc(C)cc2)C(=O)/C1=C\c1ccc2c(c1)OCO2 | -13.0 | /
O=C1CCC(=O)N1c1cccnc1 | / | 0.7
CCOc1cc(C(=O)CCC(=O)O)ccc1O | 3.0 | -1.9
Nc1nonc1/C(=N/OC(=O)c1ccccc1)N1CCOCC1 | 5.0 | 3.2
CCOc1ccc2nc(N3CCC(C(=O)Nc4cccnc4)CC3)sc2c1 | 16.0 | /
CSC(=Nc1ccccc1)C(C#N)c1nc2ccccc2[nH]1 (stereo not drawn) | / | 1.9
Cn1c(C(O)C(F)(F)F)nc2ccccc21 (stereo not drawn) | 4.0 | /
O=C(NC(C(=O)N1CCOCC1)C12CC3CC(CC(C3)C1)C2)C1CCCCC1 (stereo not drawn) | 24.0 | 0.0
COc1ccccc1CC(=O)c1ccc(O)cc1O | 5.0 | /
Cc1sc2ncnc(SC3CCCCN(C(=O)c4ccccc4)C3=O)c2c1C (stereo not drawn) | 17.0 | /
COc1cccc(CNCc2cccnc2)c1OCc1ccccc1F | 9.0 | /
C/C(=N\N)c1c(-c2ccccc2)c2cc(Cl)ccc2[nH]c1=O | 23.0 | /
Cc1cc(=O)[nH]c(N2CCOCC2)n1 | 10.0 | -1.5
CC(=O)NC1C(=O)N(C(C)C)c2ccccc21 (stereo not drawn) | -1.0 | 0.9
CCC1CCc2c(sc(NC(=O)CN3CCC4(CC3)OCCO4)c2C#N)C1 (stereo not drawn) | -20.0 | 3.9
c1ccc(-c2nnc(-c3ccc4c(c3)OCO4)nc2-c2ccccc2)cc1 | -5.0 | /
O=C(NCc1cccnc1)c1cc(-c2cccc(Br)c2)nc2ccccc12 | 10.0 | 0.4
Cc1ccc(S(=O)(=O)N(C)CC(=O)NN)cc1 | 11.0 | /
C=C(C)Cn1c(=S)[nH]c2c(c1=O)C(C)(C)Cc1ccccc1-2 | 26.0 | /
CNC(=S)N(Cc1ccc(OC)cc1OC)c1ccc(I)cc1 | 4.0 | 0.2
Cc1nc(Oc2ccc3c(C)cc(=O)oc3c2)c2c3c(sc2n1)CCC3 | 9.0 | 1.2
CCOC(=O)N1CCC(N/C=C(\C#N)S(=O)(=O)C(C)C)CC1 | / | -1.6
CN(Cc1ccccc1)Cn1ncn(C)c1=S | -8.0 | /
COC(=O)c1cc(-c2ccccc2)oc1CN | 5.0 | -1.7
Ic1ccc2c(c1)Cc1ccccc1-2 | / | -2.1
CC1CCN(C(C(=O)O)c2ccccc2)CC1 (stereo not drawn) | 7.0 | 2.1
O=C(O)CNc1ccc2nncn2n1 | 15.0 | -3.0
O=C1C(=O)N2c3ccccc3OC(=O)C2(O)/C1=C(\O)c1ccccc1 (stereo not drawn) | -5.0 | 3.0
Cc1ccc(CNC(=O)c2cc3oc4ccccc4c3n2C)cc1 | -34.0 | /
CC(C)(C)c1ccc(-c2nnc(-c3ccccc3NC(=O)c3ccc(Cl)cc3)o2)cc1 | / | 0.3
Cc1cccc(-n2c(SCC(=O)NC3(C#N)CCCC3)nc3ccccc3c2=O)n1 | 8.0 | /
COc1cc(/C=C/C(=O)Nc2cccc3c(=O)[nH][nH]c(=O)c23)cc(S(=O)(=O)N2CCc3ccccc32)c1OC | 17.0 | /
CN(C)C1(CNC(=O)C2CCN(S(=O)(=O)c3ccc4c(c3)OCCCO4)CC2)CCCCC1 | 4.0 | /
O=C1c2ccccc2-c2nn(C(=O)c3cccnc3)c3cccc1c23 | 9.0 | /
O=C(NCc1c(Cl)cccc1Oc1ccccc1)c1ccccc1 | / | -0.2
Cc1cc(C(=O)Nc2ccccc2N2CCCCC2)c(C)o1 | / | 0.0
CCC(Sc1nc2ccsc2c(=O)n1Cc1ccccn1)C(=O)Nc1cccc(OC)c1 (stereo not drawn) | -9.0 | 1.5
CCOC(=O)N1CCC(NC(=O)c2cc(C(=O)NC3CCCC3)ccc2CO)CC1 | 8.0 | /
O=C(NCC1CCCO1)C1CCN(Cc2ccccc2O)CC1 (stereo not drawn) | -3.0 | -0.5
NNC(=O)Cc1ccccc1 | -16.0 | /
CCOC(=O)C1=C(C)NC(SC)=NC1c1cccs1 (stereo not drawn) | / | 0.5
O=C(Oc1ccccc1Cl)C1CCCCC1 | 2.0 | -0.4
Cc1cccc(N=C=S)c1C | 18.0 | /
Cc1cc(C(=O)COC(=O)CSc2nc3ccccc3o2)c(C)n1C | 3.0 | /
O=C(O)c1ccccc1C(=O)N1CCN(Cc2ccncc2)CC1 | / | -3.8
CCOC(=S)SCc1cc(F)cc2c1OCOC2 | / | -1.0
Cc1cc(C(=O)CSc2ncc(-c3ccccc3)n2C)c(C)n1-c1ccc(S(N)(=O)=O)cc1 | 7.0 | /
CSc1nsc(SC)c1C(=O)NC(=O)OCc1ccccc1 | / | 0.6
Cc1ccc(S(=O)(=O)N(CC(=O)O)C2CCCCCC2)cc1 | 26.0 | /
CCOc1ccccc1N1CCN(Cn2nc(-c3ccco3)oc2=S)CC1 | 9.0 | /
CCCN(CCC)C(=O)CSc1nc2ccncc2[nH]1 | -11.0 | /

(continued)
mol | Sa helicase inh | MgrA-DNA mod
O=C(CSc1nc2c(sc3ccccc32)c(=O)n1-c1ccccc1)N1CCCC1 | 10.0 | 0.0
CC1CC1C(=O)OCc1ccc(Cl)cc1Cl (stereo not drawn) | -16.0 | -1.6
COc1cccc(C(=O)/C=C\Nc2ccc(S(=O)(=O)Nc3nc(C)cc(C)n3)cc2)c1 | / | -2.6
COc1cc(-c2cc(-c3ccccc3)nc(SCC(=O)O)c2C#N)cc(OC)c1OC | / | -0.3
COCc1nc2ccccc2n1CC(=O)N(c1ccccc1)C(C)C | 35.0 | /
CCS(=O)(=O)c1ccc(O)c(NC(=O)CC(C)(C)CC(=O)O)c1 | 30.0 | /
Cc1cc(O)cc(C)c1Cl | / | 0.9
COc1ccc(C2=Nc3ccccc3SC(c3ccccc3)C2)cc1 (stereo not drawn) | / | 1.4
Cc1nn(-c2ccccc2)c2c1C1(C)CC(C)(O2)c2c(C)nn(-c3ccccc3)c2O1 | -30.0 | /
COc1ccc2c(CC(=O)N3CCCSc4ccccc43)coc2c1 | 12.0 | /
O=C(Cc1nc2ccccc2[nH]1)c1cccs1 | 10.0 | 4.4
CCOC(=O)Cn1c(=O)oc2cc(S(=O)(=O)N(CC)c3ccc(C)c(C)c3)ccc21 | -81.0 | /
NC(=S)Cc1nnc2n1CCCCC2 | 1.0 | /
CN(C)S(=O)(=O)c1cccc(CSc2nnc(-c3ccccc3Cl)n2C)c1 | 4.0 | /
CSc1nc(C)cc(SCCOc2ccccc2)n1 | -5.0 | 1.2
CCN1CCN(c2ncnc3c2sc(=S)n3-c2ccccc2)CC1 | -10.0 | /
CCC(CC)C(=O)Nc1cccc(NC(C)=O)c1 | 8.0 | -4.0
COc1ccc(NC(=O)CSc2cn(Cc3ccc(Cl)cc3)c3ccccc23)cc1 | 6.0 | -1.0
Oc1c(N=Nc2ccc3c(c2)OCO3)sc2ccccc12 | 17.0 | /
COc1ccc(CCNC(=O)c2ccc(N(C)S(C)(=O)=O)cc2)cc1 | -8.0 | 0.4
CCn1c(COc2ccccc2C(C)C)nnc1SCc1nc2ccccc2c(=O)[nH]1 | 17.0 | -3.0
O=c1[nH]c(C(F)(F)F)nc2ccc3ccccc3c12 | 16.0 | -1.4
CCCc1cc(=O)n2[nH]c(-c3ccc(I)cc3)cc2n1 | -10.0 | 0.5
COc1ccc(CCNC(=O)C2CC2(c2ccc(C)cc2)c2ccc(C)cc2)cc1OC (stereo not drawn) | 6.0 | 2.0
O=C(NCCCN1CCOCC1)c1cnn2c(C(F)(F)F)cc(-c3ccccc3)nc12 | 12.0 | /
COc1ccc(-c2nn(-c3ccccc3)cc2C(=O)N(C)C)cc1 | -12.0 | -1.5
Cc1ccc(C(=O)OCC(=O)N(C)c2ccccc2)s1 | 16.0 | 0.1
Cc1onc(-c2c(Cl)cccc2Cl)c1C(=O)NCCO | / | -2.4
NC(=O)C1CCCc2c1[nH]c1ccccc21 (stereo not drawn) | 8.0 | /
CCNCc1c(C(=O)O)c(C)n(Cc2ccc(Cl)cc2)c1C | -25.0 | /
C#CCn1c(=NC(=O)C(C)C)sc2c(C)cc(C)cc21 | 16.0 | /
N#Cc1cnn(-c2ccccc2)c1NC(=O)CN(Cc1ccccc1)Cc1ccccc1 | 12.0 | /
N#CCCN1C(=O)C2(OCCO2)c2ccccc21 | / | -3.0
COc1ccc(-c2cc(C(=O)N3CCCC3)c3ccccc3n2)cc1 | -11.0 | /
CN(C(=O)COc1ccc(C#N)cc1)C1CCCCC1 | -41.0 | -0.4
C=CCC(C(=O)OC)N1CCCCC1 (stereo not drawn) | 1.0 | -1.8
CN1CCCN(C(=O)c2ccc(S(=O)(=O)N(C)C)cc2)c2nc3ccccc3nc21 | -7.0 | /
CC1CCN(CC(=O)Nc2nccs2)CC1 | 4.0 | 3.2
O=C(NC1CCCCCCC1)C1CCCN(S(=O)(=O)c2cnc[nH]2)C1 (stereo not drawn) | 6.0 | -1.2
O=c1c2[nH]c(=S)[nH]c2cnn1-c1ccccc1 | -24.0 | /
N#Cc1c(Cl)cccc1NCC1(N2CCOCC2)CCCCC1 | -10.0 | /
O=c1c2ccccc2c(=O)c2c1c(NCc1ccccc1)cc1oc3ccccc3[nH]c12 | / | -0.2
COC(=O)CC1C(=O)NCCN1C(=O)c1ccc2c(c1)S(=O)(=O)c1ccccc1C2=O (stereo not drawn) | 8.0 | /
COc1ccc(Cn2c(=O)[nH]c3cc(C(=O)NC4CCCCC4C)ccc32)cc1 (stereo not drawn) | 8.0 | 3.4
O=C(Nc1cccc(NC(=O)c2cccc(S(=O)(=O)N3CCCCC3)c2)c1)c1ccc(Br)cc1 | / | -1.3
CC(C)(C)NC(=O)NC(=O)CN1CCN(S(=O)(=O)/C=C/c2ccccc2)CC1 | -1.0 | /
O=C1CC(c2cccs2)SC(N(c2ccccc2)c2ccccc2)=N1 (stereo not drawn) | 16.0 | -1.2
CC(=O)Nc1ccc(C2Nc3cc(C)ccc3O2)cc1 (stereo not drawn) | / | -0.5

Rewritten with values under each structure: part of the list above.
Every second line gives: Sa helicase inh	MgrA-DNA mod
COc1ccc(Cn2c(=O)[nH]c3cc(C(=O)NC4CCCCC4C)ccc32)cc1 (stereo not drawn)
→ 8.0	3.4
COC(=O)CC1C(=O)NCCN1C(=O)c1ccc2c(c1)S(=O)(=O)c1ccccc1C2=O (stereo not drawn)
→ 8.0	/

Later entries.
mol | Sa helicase inh | MgrA-DNA mod
O=C(OCn1nnc2ccccc2c1=O)C1(c2ccc(Cl)cc2)CCCC1 | 10.0 | -1.6
Cc1ccc(N2CC(C(=O)Nc3c(C(N)=O)oc4ccccc34)CC2=O)cc1 (stereo not drawn) | 11.0 | /
O=C(O)c1ccc(CS)cc1 | -7.0 | /
O=C1c2cccnc2C(=O)N1Cc1ccc(S(=O)(=O)N2CCCCCC2)cc1 | 17.0 | /
COc1ccc(S(=O)(=O)N2CCC(O)(c3cccnc3)CC2)cc1OC | 4.0 | -1.2
NC(=O)c1cccc(NC(=O)c2ccccc2I)c1 | -4.0 | /
CC(C)NCC(O)c1cc(O)cc(O)c1 (stereo not drawn) | / | -0.8&1.1
CC(C)c1ccc(C=NCCO)cc1 | / | -0.9
O=c1oc(C23CC4CC(CC(C4)C2)C3)ns1 | 8.0 | 8.4
C/C(=C\C(=O)c1ccc(Cl)cc1)Nc1ccncc1 | 9.0 | 0.5
O=c1oc(-c2ccco2)nc2sc3c(c12)CCC3 | / | -1.7
CCOc1ccc(CNC(=O)C2CCN(c3nc4ccccc4[nH]3)CC2)cc1 | -4.0 | /
Cc1cccc(-c2noc(CSc3ccccc3)n2)c1 | 2.0 | -1.1
CC1=C(C(=O)OC2CCCC2)C(c2cc3c(cc2[N+](=O)[O-])OCO3)C2=C(CC(c3ccccc3)CC2=O)N1 (stereo not drawn) | / | 4.7
COc1ccc(C(=O)CNc2cccc(F)c2)cc1 | 0.0 | /
S=c1sc2c(Cl)ncnc2n1-c1ccccc1 | 9.0 | /
COc1ccc(NC(=O)CN(C)C(=O)c2ccc(S(=O)(=O)N3CCOCC3)cc2)cc1 | 3.0 | /
O=C(COc1ccccc1O)NCCN1CCOCC1 | 13.0 | -1.2
COc1ccc(C(=O)n2cnc3ccccc32)cc1OC | 17.0 | /
CN1C(=O)CC(C(=O)NCCc2ccccc2)SC1=Nc1ccc(I)cc1 (stereo not drawn) | 9.0 | 1.4
Cc1ccc(CN2CCC(CNC(=O)Cn3c(=O)oc4ccccc43)CC2)cc1 | -6.0 | /
COc1ccc(C2(C(=O)NC3CCCCC3)CCCC2)cc1OC | 15.0 | -1.9
O=C(N=Nc1c(O)n(Cc2ccccc2)c2ccccc12)c1ccccc1O | -2.0 | /
COc1ccc(NC(=O)Cn2c(C(F)(F)F)nc3ccccc32)cc1 | / | 0.0
S=c1[nH]nc(-c2ccccc2)n1Cc1ccccc1 | / | 0.9
CCOC(=O)c1cnc(SCC(=O)Nc2ccc(C)cc2Cl)nc1N | 1.0 | 2.6
CN(C)S(=O)(=O)c1ccc(C(=O)OCc2nc(-c3ccccc3)no2)cc1 | 3.0 | /
COc1ccc(/C=C/C(=O)N(C)c2ccccc2)cc1OC | -16.0 | 1.0
O=C(NC(=O)N1CCOCC1)c1cc(Br)cc(Br)c1 | / | 1.2
